Source: PubChem BioAssay
NPYLR7 ag = mosquito NPYLR7 agonism | hit rate 0.15% among 270,000 | HEK293T NPYLR7/Galpha15, GCaMP6s calcium fluorescence | AID 1259423 | activation, % at 10 µM; in the data active = activation above about 40%;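 note: 0% = vehicle and 100% = reference agonist at the receptor; some compounds past the cut are filed as inactive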
NPYLR7 ag max-min = further read-out of NPYLR7 ag, marked with its call; activation, %; measured here: Max-Min RFU normalised activation; some inactives read as strong as hits;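 span of the calcium signal over five minutes; 0% = vehicle and 100% = native peptide agonist; compound fluorescence can raise it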
Numbers without * were called inactive. This is a subset; the hit share may differ from the screen's.

SMILES | NPYLR7 ag | NPYLR7 ag max-min
FC(F)(F)c1cccc(/C=C(/Cl)c2nc3ccccc3[nH]2)c1 | -1 | -4
O=C(O)c1cccc2nc3c4ccccc4c4ccccc4c3nc12 | -2 | -6
COc1ccc(OC)c(-c2cccc(-c3ccc(NC(=O)C=C(C)C)cc3)n2)c1 | 6 | 12
CCCNC(=O)CN(C)C(=O)c1cccc(OCc2c(C)noc2C)c1 | 0 | -2
CCOC(=O)c1nn(-c2ccccc2C)c(=O)cc1OCC | 9 | 4
CC(=O)Nc1cccc(S(=O)(=O)N2CCC3(CCCN(C)C3=O)C2)c1 (stereo not given) | 10 | 11
Cc1n[nH]c(=O)c(C(=O)NCc2nc(-c3ccc(F)cc3)n[nH]2)c1C | -2 | -7
Cc1[nH]n(-c2nc(-c3ccccc3)cs2)c(=O)c1N=Nc1ccc(Cl)cc1 | 1 | -6
CCOC(=O)c1cc(-c2ccc(N3CCN(C(=O)COCc4ccccc4)CC3)cc2)n(-c2ccccc2OC)n1 | 22 | 10
CCCCCCC(=O)Nc1c(-c2ccc(C)cc2)nc2cc(C)ccn12 | -2 | 5
COc1cccc(-n2c(SCC(=O)NCC3CCCO3)nc3c(c2=O)SCC3)c1 (stereo not given) | -5 | -7
O=C(CCc1c[nH]c2ccccc12)N1CC(=O)N(C2CCCCC2)CC(OCc2ccncc2)C1 (stereo not given) | 22 | 11
COCCNC(=O)c1csc(COc2cccc(C)c2)n1 | -4 | -12
O=C(COC(=O)C12CC3CC(CC(Br)(C3)C1)C2)N1CCCCC1 | 7 | 4
CSCCC(C(=O)O)N1CS/C(=C2\C(=O)Nc3ccc(Br)cc32)C1=O (stereo not given) | -7 | -12
O=C(c1ccc(N2CCC(NCCc3cn4ccsc4n3)CC2)cc1)N1CCOCC1 | 18 | 8
COCCNc1nc(NC(C)C)nc2ccsc12 | 14 | 9
CCN1CCN(C(=O)c2cccc(Nc3c(Oc4ccc5c(c4)OCO5)cnn(-c4ccc(C)cc4)c3=O)c2)CC1 | 11 | 14
Cc1cnc(CN(C)C(=O)c2n[nH]c3ccccc23)[nH]1 | -1 | -1
Cc1ccc(C(=O)N(Cc2nccn2Cc2ccc(F)c(F)c2)C2CCCCC2)cc1 | 19 | 25
CCOc1ccc(NC(=O)Nc2c(C)nc3ccc(Cl)cn3c2=O)cc1 | 0 | 0
O=C(Nc1ncn[nH]1)c1cc(F)ccc1I | -2 | -3
O=C(Sc1cccc2cccnc12)N1CCOCC1 | -7 | -8
COC(=O)CCCCCCC(=O)N1CCC(c2cn(Cc3ccc(C(F)(F)F)cc3)c3ccccc23)CC1 | 24 | 11
O=C(N=C1OC(COc2ccccc2)CS1)c1ccccc1 (stereo not given) | 3 | 1
Cc1cc(Cl)cc2nc(SCC3CNC(=O)O3)oc12 (stereo not given) | 2 | 17
COc1ccc(N2CC(NC(=O)N3CCC4(CC3)OCCO4)CC2=O)cc1OC (stereo not given) | -6 | -1
CC(C)(C)C(=O)NCCC(=O)Nc1cc(C#N)cn1C(C)(C)C | 7 | 6
Cc1nnc(SCC(=O)N(Cc2ccc3c(c2)OCO3)C2CC2)s1 | 0 | -7
CCn1ccnc1CN(C)C(=O)c1[nH]c2c(C)cc(C)cc2c1C | -8 | -9
NC(=O)CN1CCN(S(=O)(=O)c2ccc(OC(F)(F)F)cc2)CC1 | 0 | 0
CCCCCCc1nc(C(N)=O)c2[nH]c(=O)n(-c3ccc(OC)c(OC)c3)c2n1 | 14 | 4
CCn1nc(C(C)C)cc1C(=O)N1CCC1c1ccc(F)cc1 (stereo not given) | 3 | -5
O=C(c1cccc2[nH]ncc12)N(CC1CCCCC1)C1CC1 | 1 | 13
COc1ccc(C)cc1C(=O)NC(CC(=O)O)c1ccccc1 (stereo not given) | 5 | 5
COc1ccccc1Oc1ncccc1CNC1CCOCC1 | -1 | -4
CC(C)(C)NC(=O)NCC(c1ccsc1)N1CCCCCC1 (stereo not given) | 4 | -4
COc1ccc2[nH]c3c(c2c1)CCN(C(=O)c1ccccc1SC(F)F)C3c1ccccc1OC (stereo not given) | 13 | 1
CSCCNC(=O)c1cc(N(C)C2CCCCC2)nc2ccccc12 | 2 | 1
O=C(NCC(=O)N1CCOC(COc2ccc3c(c2)CCCC3)C1)c1cccc(C(F)(F)F)c1 (stereo not given) | 3 | 2
CCOC(=O)c1cn[nH]c1S(=O)(=O)Nc1ccc(F)cc1F | -2 | -4
Cc1cc(C(=O)COC(=O)C=Cc2ccc(Br)o2)c(C)n1CC1CCCO1 (stereo not given) | 2 | 1
Cc1c(NC(=O)COc2cccnc2)cccc1C(=O)NC(C)(C)C | 0 | -2
COCCn1ccc(NC(=O)N(Cc2ccccc2F)C2CCC2)n1 | 1 | 0
CCOc1ccccc1N1CCN(C(=O)c2ccc3c(c2)OCO3)C(C)C1=O (stereo not given) | 14 | 18
Cc1[nH]cnc1-c1nccn1CCCCc1ccccn1 | 10 | 3
O=c1ccc(-c2ccc(Cl)cc2)nn1CCNS(=O)(=O)c1ccc(C(F)(F)F)cc1 | -1 | -2
O=C1CC(C(=O)N2CCOc3ccccc32)CN1CC(F)(F)F (stereo not given) | 9 | 6
CC(C)Nc1ncc(-c2nccn2CCc2cnc[nH]2)cn1 | 15 | 9
CCCc1nnc(-c2cc3ccccc3n2CC(=O)Nc2ccccc2C(F)(F)F)o1 | -7 | -3
COc1ccc(N(C(=O)Cn2c(=O)[nH]c3ccccc3c2=O)C(C)C)cc1F | 8 | 4
Cn1c(CNC(=O)/C=C/c2ccc(Br)o2)nc2ccccc21 | 4 | 4
O=C(Cn1cnc2ccc(F)cc2c1=O)Nc1ccc(-n2cncn2)nc1 | 0 | -1
CN(CC(=O)Nc1ccc(Cl)c(Cl)c1)CC(=O)N1CCCc2ccccc21 | -4 | -4
O=C1CC(NS(=O)(=O)N2CCCC2)CN1Cc1ccc(F)cc1 (stereo not given) | 19 | 9
Cc1ccc(-n2c(C)c(C)n3c4c(=O)[nH]c(=O)n(C)c4nc23)c(C)c1 | -2 | 7
O=c1c2ccccc2c(C=Nc2ncnc3nc[nH]c23)c(O)n1-c1ccc(Cl)cn1 | -1 | 4
COc1cccc(-c2nnc(SCc3nc(C(=O)NCc4ccco4)cs3)n2-c2ccccc2)c1 | 9 | 21
Cc1ccc(C2=Nn3c(C)nnc3SC2)cc1 | 12 | 3
CCCS(=O)(=O)c1ccccc1SC(C)C(=O)NC1CC1C (stereo not given) | 24 | 0

Pulled by structure from above:
SMILES | NPYLR7 ag | NPYLR7 ag max-min
COc1ccc2[nH]c3c(c2c1)CCN(C(=O)c1ccccc1SC(F)F)C3c1ccccc1OC (stereo not given) | 13 | 1
O=C(CCc1c[nH]c2ccccc12)N1CC(=O)N(C2CCCCC2)CC(OCc2ccncc2)C1 (stereo not given) | 22 | 11
CC(C)Nc1ncc(-c2nccn2CCc2cnc[nH]2)cn1 | 15 | 9
Cc1ccc(-n2c(C)c(C)n3c4c(=O)[nH]c(=O)n(C)c4nc23)c(C)c1 | -2 | 7
COC(=O)CCCCCCC(=O)N1CCC(c2cn(Cc3ccc(C(F)(F)F)cc3)c3ccccc23)CC1 | 24 | 11
O=C(Sc1cccc2cccnc12)N1CCOCC1 | -7 | -8
CCn1ccnc1CN(C)C(=O)c1[nH]c2c(C)cc(C)cc2c1C | -8 | -9

Other entries.
SMILES | NPYLR7 ag | NPYLR7 ag max-min
CN1CCN(C(CNS(=O)(=O)c2cc(F)ccc2F)c2cccn2C)CC1 (stereo not given) | 13 | 12
CCCCn1c(=O)[nH]c(=O)c2c1nc(CSc1nnnn1C1CCCC1)n2C | 2 | 3
CCC(C)(C)NC(=O)c1sc(NC(=O)C2CC2)cc1C | 15 | 12
CC(C)N(CC#N)C(=O)CNC(=O)C(C)(C)C | 1 | -2
CC(OCC1CC1)C(=O)Nc1cc(Br)c[nH]c1=O (stereo not given) | -7 | -7
O=C(Nc1cccc(C(=O)Nc2cnccn2)c1)c1ccc(F)c(F)c1 | -1 | -2
O=C1CC(c2ccccc2)Cc2nc(N3CCc4ccccc4C3)ncc21 (stereo not given) | 18 | 14
CCS(=O)(=O)NCCN1CCC(C)N(Cc2ccccc2)CC1 (stereo not given) | 9 | 8
C=c1ccccc1=c1[nH]/c(=C/c2cccnc2)c(=O)o1 | -7 | -10
CC(C)C(C(=O)NCc1cccnc1N(C)C)c1ccccc1 (stereo not given) | -2 | -3
Cn1c(=O)c2c(nc(CN3CCN(Cc4ccccc4)CC3)n2CCc2ccccc2)n(C)c1=O | -1 | -1
Cc1[nH]c2c(c1C(=O)N1CCC3(CN(C)C(=O)O3)C1)C(=O)CCC2 (stereo not given) | 5 | 5
CC(Cn1cccn1)NC(=O)c1ccc(N2CCCCCC2)nc1 (stereo not given) | 2 | -2
CCOC(=O)CCCC(=O)Nc1ccc2[nH]cc(CCN3CCN(c4cccc(C(F)(F)F)c4)CC3)c2c1 | 33 | 33
CCc1ccc(Cc2cnc(N3C(=N)SC(C)C3=O)s2)cc1 (stereo not given) | -4 | -6
CC(C)C(=O)Nc1cccnc1-c1cccc2ccnn12 | 21 | 11
Cc1ncccc1Oc1ncnc(N2CCCC3(CC2)CN(C)C(=O)O3)c1C (stereo not given) | 17 | 0
CCCC1(C)C(C#N)(C(=O)OC)C1(C#N)C(=O)OC (stereo not given) | 2 | -2
Cn1cc(C2NC(=O)c3sc4ccccc4c3N2)c(=O)n(C)c1=O (stereo not given) | 3 | 2
CC(=O)c1cccc(NC(=O)CSc2nc(=O)n(N3CCN(C)CC3)c3c2CCC3)c1 | -6 | -6
O=C(CC1CCCC1)N1CCN(C(=O)c2ccc(-c3ccccc3)cc2)CC1 | 0 | -2
CCc1nc(C(N)=O)c2[nH]c(=O)n(-c3ccccc3F)c2n1 | 18 | 14
Cc1cccc(C)c1NC(=O)CN(C)C(=O)c1ccc(Cl)s1 | 3 | 2
CCCCN(Cc1cccn1C)C(=O)CN(CC(C)C)C(=O)c1ccc([N+](=O)[O-])cc1Cl | 13 | 11

Profiles, looked up by structure.
O=C(CC1CCCC1)N1CCN(C(=O)c2ccc(-c3ccccc3)cc2)CC1 reads NPYLR7 ag = 0; NPYLR7 ag max-min = -2
CC(C)C(=O)Nc1cccnc1-c1cccc2ccnn12 reads NPYLR7 ag = 21; NPYLR7 ag max-min = 11

The listing picks up, repeating the 4 entries before the break.
SMILES | NPYLR7 ag | NPYLR7 ag max-min
O=C(CC1CCCC1)N1CCN(C(=O)c2ccc(-c3ccccc3)cc2)CC1 | 0 | -2
CCc1nc(C(N)=O)c2[nH]c(=O)n(-c3ccccc3F)c2n1 | 18 | 14
Cc1cccc(C)c1NC(=O)CN(C)C(=O)c1ccc(Cl)s1 | 3 | 2
CCCCN(Cc1cccn1C)C(=O)CN(CC(C)C)C(=O)c1ccc([N+](=O)[O-])cc1Cl | 13 | 11
CCC(C)(C)NC(=O)NCc1ccc(NC(=O)c2cccnc2)cc1 | -2 | -3
COCC1(Cn2cnc(-c3ccccc3)c2-c2cnn(C)c2)CCCC1 | 7 | 3
Cc1cc(C)n2c(NCc3ccccc3)c(-c3ccc(C(C)(C)C)cc3)nc2c1 | -5 | -2
O=C(c1cn(Cc2ccccc2F)nn1)N1CCC(O)(c2cccc(C(F)(F)F)c2)CC1 | -11 | -14
CC(=O)N[C@@H](CCC(N)=O)C(=O)O | 1 | 6
Cc1sc2ncnc(N(C)Cc3ncc[nH]3)c2c1C | 3 | -4
Cc1ccc(CN(C)C(=O)Cn2nnnc2-c2ccccc2F)c(C)c1 | -3 | -4
Cc1[nH]c2ccc(C(=O)NNC(=O)c3ccco3)cc2c1C | 12 | 13
CCN(Cc1nccn1C)C(=O)CC1C(=O)NCCN1C1Cc2ccccc2C1 (stereo not given) | 2 | 1
Clc1cnc(NN=C2CCCc3ccccc32)c(Cl)c1 | 4 | 5
O=C(Nc1cccc(F)c1)c1cc(C2CC2)n(C2CCS(=O)(=O)C2)n1 (stereo not given) | 1 | -1
Cc1cnccc1CN(C)Cc1cn(C)c2ccccc12 | -3 | -1
COCCN(CC(=O)Nc1nc(CC(=O)NCCc2ccccn2)cs1)C(=O)c1ccccc1 | 16 | 32
CC1CCN(C(=O)c2cc(NC(=O)/C=C/c3ccccc3)ccc2N2CCCCC2)CC1 | 20 | 25
CCN(CC)c1ccc(CNc2nn[nH]n2)cc1 | -1 | -2
CC=CCn1c(=O)c2c(nc3n(-c4ccc(S(N)(=O)=O)cc4)c(C)cn23)n(C)c1=O | 4 | 4
CCOc1ncccc1C(=O)OCC(=O)Nc1cc(Cl)ccc1OC | 8 | 5
O=[N+]([O-])c1cc(S(=O)(=O)N2CCOCC2)ccc1Nc1cccc(C=Cc2ccccn2)c1 | 5 | 1
O=C(CCC1CCCCC1)NCCN1C(=O)C(=Cc2ccc3c(c2)OCO3)SC1=S | 40 | 28
Cc1ccc(OCCN2CCC2(C)C(=O)NCc2cccc3ccccc23)cc1 (stereo not given) | 7 | 4
CCCCOC(=O)C(CC)Sc1n[nH]c(=O)[nH]c1=O (stereo not given) | 3 | -2
COc1ccc(-c2nnc3ccc(OCCNC(=O)C4CCCCC4)nn23)cc1OC | -8 | -9
C[C@@H]1CN(C(=O)c2ccc(Br)cc2F)CC(C(N)=O)O1 (stereo not given in full) | 11 | 9
Cc1nc(-n2nc(C3CC3)cc2NC(=O)COc2ccc(Cl)cc2Cl)[nH]c(=O)c1C | 12 | 11
COC(=O)C(c1ccc(OC)cc1)C1C=CC(NC(=O)c2ccc(SC(F)(F)F)cc2)C1 (stereo not given) | 3 | 3
CCCc1cnc(C)nc1-c1cccc(C(C)=O)c1 | 20 | 15
Nc1c(C=C2C=C(Br)C=CC2=O)c(=O)nc2sc(-c3ccccc3)nn12 | 0 | 0
N#Cc1cc(F)c(NCC2CCS(=O)(=O)C2)c(F)c1 (stereo not given) | 5 | 4
Cc1cc(C2CCCN2C(=O)c2ccc(CSc3ncccn3)o2)on1 (stereo not given) | 10 | 4
COc1ccc(C(=O)CSc2nc3c(c(CC(C)C)c2C#N)CCCC3)cc1 | -2 | -10
CCn1cnnc1C(C)NC(=O)c1cnc2ccccc2c1 (stereo not given) | -4 | -13
